Mtb hypoxia inh = inhibitors of hypoxia-regulated fluorescent reporter in Mycobacterium tuberculosis; M. tuberculosis hypoxia-regulated fluorescent reporter, fluorescence; fluorescence inhibition, % (test concentration not listed); hit rate 0.1% among 300,000; AID 1159583;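 active = 35 to 45% if threefold the growth effect, above 45% if 1.5-fold the growth effect; inactive = the rest, general growth blockers included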;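 also: wells of about 50 µL received 100 nL stock; 0% = vehicle wells and 100% = reference inhibitor wells; whole bacteria with a GFP reporter of the hypoxia response; strong numbers were not always called active; many hits fall short of the cut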
Bead autofluor = counter-screen for toxin protease inhibitors: compound fluorescence; compound autofluorescence counterscreen, microsphere flow cytometry; active compounds read high; fluorescence intensity (test concentration not listed); hit rate 3.1% among 360,000; AID 624483;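 active = at least 3 SD above the mean of all compounds, about 16000 in these data; inconclusive = too few beads counted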;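 also: 100 nL of 1 mM stock went into each well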
PrP UTR inh = inhibition of PrP 5' UTR reporter expression | inhibition, % (concentration not given with the values) | hit rate 0.35% among 340,000 | cell-based PrP 5' UTR mRNA reporter, plate reader;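 active = every replicate at 50% or more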;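 also: 0 = median of the neutral control wells; tested in H4 reporter cells; numbers are from one replicate; inactives centre near -14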
BJeLR lethal = BJeLR cell viability loss. BJeLR (HRASV12) viability, CellTiter-Glo ATP luminescence, 48 h; reference of the scale not given here. inhibition, % (no concentration beside the values). hit rate 0.17% among 300,000;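 active = replicate mean above 50%; inconclusive = above 50% but judged a plate artefact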;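 also: 50 nL library stock added to about 25 µL; numbers are from one replicate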
RN4220 kill = S. aureus RN4220 growth inhibition. inhibition, % (no concentration beside the values). hit rate 0.33% among 330,000. OD600, 16 h;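 active = z-score of -3 or lower and OD600 up to 0.18 on both plates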;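 also: plate controls were untreated cells for no effect and reference antibiotic for full effect; stock transfer was 100 nL into about 80 µL; one replicate is shown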
Sa ugtP lethal = kills S. aureus RN4220 lacking UgtP | S. aureus RN4220 ugtP deletion, OD600 growth, 16 h; some inactives read as strong as hits | growth inhibition, % (no concentration beside the values) | hit rate 0.54% among 330,000;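 active = z-score under -3 and OD600 up to 0.15 on both plates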;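 also: plate controls were untreated wells for no effect and antibiotic for full effect; wells of about 80 µL received 100 nL stock; the first replicate is given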
Mtb hypoxia inh growth = further read-out of Mtb hypoxia inh, marked with its call; growth inhibition, %; measured here: M. tuberculosis growth (absorbance);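 0% = vehicle and 100% = reference antibiotic; read after six days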
The depositor's hits bear a star; ? = inconclusive; . = no result given; & = joins results of further samples.

compound	Mtb hypoxia inh	Mtb hypoxia inh growth	Bead autofluor	PrP UTR inh	BJeLR lethal	RN4220 kill	Sa ugtP lethal
CCC1CCCCN1Cc1nc2c(c(=O)n(C)c(=O)n2C)n1CCC(C)C (stereo not drawn)	7	9	5297	-9	7	-7.9	0
Fc1cccc(C2NCc3ccccc3-n3cccc32)c1 (stereo not drawn)	0	-2	4123	1	7	13	16
O=C(CN1CCOCC1)N/N=C/C(Br)=C\c1ccccc1	.	.	3686	-11	1	.	.
CCOc1ccccc1N(CC(=O)Nc1ccc(S(=O)(=O)N2CCOCC2)cc1)S(=O)(=O)c1ccccc1	.	.	4825	-13	-4	1.1	-4
Cc1cc(C(=O)N2CCN(c3ccc(F)cc3)CC2)on1	15	21	6385	-29	12	-7.1	-7
Cc1ccccc1C(=O)N1CCC(C(=O)OCc2ccccn2)CC1	3	8	3977	-21	.	0.3	4
C=CC(=O)Nc1cccc(Oc2ncnc3[nH]cc(-c4cnc5ccccc5c4)c23)c1	18	13	2991	11	.	3.7	-15
N/C(=N\OC(=O)c1ccc2c(c1)OCO2)c1ccc(Br)cc1	6	-3	2430	-54	-4	0.3	3
Cc1ccc(CNS(=O)(=O)c2ccc3c(c2)NC(=O)CO3)cc1	-13	3	6142	1	2	-2.1	-2
CCOc1ccc(NC(=S)N(CCCN2CCOCC2)Cc2cn(C)c3ccccc23)cc1	5	10	6853	-12	3	3.6	8
CN(C)CCOC(=O)COc1ccc(Cl)cc1	-1	-1	5921	-2	.	4.5	-1
CCCn1nc(C(=O)OCC(=O)Nc2ncc(Cl)c(C)c2Cl)c2ccccc2c1=O	-8	4	2041	-26	7	4.2	-3
O=C(Nc1ccccc1F)c1ccco1	3	1	9353	-35	14	4.2	1
COc1cc(C(=O)NCc2ccc3c(c2)OCO3)c([N+](=O)[O-])cc1OC	1	2	3719	-13	4	2.7	4
Cc1ccc(-c2nc3ccccc3s2)cc1NC(=S)NC(=O)c1cccc2ccccc12	.	.	2445	-32	-4	.	.
O=C(Cc1c(F)cccc1Cl)NC1CCN(Cc2ccccc2)CC1	0	4	6698	-5	1	1.1	5
CC(C)Cc1nnc(NC(=O)c2cc(-c3ccccc3)nc3ccccc23)s1	11	4	16445*	-27	1	-1.0	-5
CCOC(=O)Cc1c(C)nc(Cc2ccc(OC(C)C)cc2)[nH]c1=O	5	0	4492	-21	-5	4.7	0
Cc1cccc(C)c1Nc1nnc(SCC(=O)NCc2cccs2)s1	7	5	2090	-13	-11	4.8	3
CCc1cc(=O)oc2cc(C)cc(OC(C)C(=O)O)c12 (stereo not drawn)	-3	-1	21951*	-5	8	2.1	-2
COc1ccccc1OCCn1cc(C=NNC(=O)c2ccncc2)c2ccccc21	25	27	.	.	.	3.8	10
CCn1cc(C=C2C(=O)N(C)C(=O)N(C)C2=O)c2ccccc21	3	2	3155	-17	-6	1.5	7
N#Cc1ccsc1NC(=O)CN1CCN(c2ccccn2)CC1	10	4	2614	0	-1	7.9	3
O=C(NCC1COCCO1)c1ccc(OC2CCN(CCc3ccccc3)CC2)cc1 (stereo not drawn)	5	-5	6955	-10	-3	1.3	7
CCOC(=O)C1=C(C)OC(N)=C(C#N)C1c1ccc(O)c(OC)c1 (stereo not drawn)	2	6	4327	-6	-16	2.4	0
CCc1ccc(C(C(=O)NC2CCCC2)N(C(=O)/C=C/C(=O)Nc2cc(C)on2)c2ccccc2C)cc1 (stereo not drawn)	12	-5	2363	-9	0	16	2
CCCNC(=O)C(CC)NC(=O)c1ccc(C#N)cc1 (stereo not drawn)	4	1	2947	-4	.	2.5	0
COCCNC(=O)c1c(NC(=O)c2ccco2)n(Cc2ccccc2)c2nc3ccccc3nc12	-2	8	3129	-18	-1	-4.7	-1
CNc1oc(-c2ccccc2)nc1C#N	6	8	4145	-8	0	5.4	8
Cc1ccsc1C(=O)N1CCCC(CCC(=O)NCc2ccccc2F)C1 (stereo not drawn)	5	1	3837	-25	-3	2.1	0
CC(=O)Nc1ccc(S(=O)(=O)N2CCCN(S(=O)(=O)c3ccc(C)cc3)CC2)cc1	-10	9	27039*	-34	3	1.9	1
O=C(Cn1cnc2ccccc2c1=O)NCCC(=O)Nc1ccccc1C(F)(F)F	1	-1	4386	-10	-11	0.8	4
Cc1cccn2cc(-c3c[nH]c4ccccc34)nc12	6	5	4446	-124	-13	8.9	6
CCOC(=O)C1CCN(C(=O)Cc2c(C(=O)O)n(CC)c3ccccc23)CC1	6	4	9223	-20	0	3.5	1
COc1ccc2[nH]c(=O)c(CN(C(=O)c3cccnc3)c3ccccc3OC)cc2c1	-1	0	7989	-27	-9	2.8	1
NS(=O)(=O)c1ccc(CCNC(=O)CN2CCN(c3cccc(Cl)c3)CC2)cc1	16	7	2178	-27	-19	6.9	7
C=C(C)CNC(=S)NN=Cc1ccc(N2CCOCC2)cc1	-7	11	.	.	.	-0.3	-1
C=CCC(Cc1ccc(F)cc1)C(=O)OCC1CCCN1C(=O)C(CC=C)CC(=O)NCCO (stereo not drawn)	11&10&12	9&6&11	.	.	.	10&6.7&3.2	7&4&6
COC(=O)c1ccccc1NC(=O)C1CC(=O)N(c2ccc(F)cc2)C1 (stereo not drawn)	.	.	2719	-20	1	2.5	-5
COCCN(C(=O)CSCC(=O)Nc1ccc(C)cc1)c1c(N)n(CC(C)C)c(=O)[nH]c1=O	13	5	2870	-30	.	3.8	10
CCN1CCN(C(=O)CCN2C(=O)c3ccccc3C2=O)CC1	-8	18	2160	-69	-3	4.0	1
Cc1ccc(C(=O)O)cc1S(=O)(=O)N1CCC(C(=O)O)CC1	6	-4	7440	-21	-14	2.3	1
O=C(NNC(=O)C(O)(c1ccccc1)c1ccccc1)C1CC1	11	14	3097	-11	-8	15	6
CC1(C2CC2)NC(=O)N(CC(=O)Nc2ccc(SC(F)F)cc2)C1=O (stereo not drawn)	14	4	3469	-36	.	-2.3	7
CCNc1nc(NC(C)C)nc(N(C)C#N)n1	8	5	3361	-8	0	0.3	-1
CCOc1ccc(-c2nc(C#N)c(NCC3CCCO3)o2)cc1 (stereo not drawn)	12	7	?	-10	-4	0.5	7
Cc1nn(C)cc1C(C)NCc1c(C(=O)N2CCCCCCC2)nc2ccc(Cl)cn12 (stereo not drawn)	0	0	2078	-22	-11	3.2	7
COc1ccccc1-c1nc(C#N)c(N2CCC(C(N)=O)CC2)o1	5	8	10703	-23	-9	3.8	-8
Cc1cccc(C)c1NC(=O)C(C)Sc1nnc(C)n1CC1CCCO1 (stereo not drawn)	4	5	3468	-12	-14	2.3	9
O=C1C(=O)N(CCCN2CCOCC2)C(c2cccs2)/C1=C(/O)c1ccc2c(c1)OCO2 (stereo not drawn)	2	8	.	.	-7	4.8	3
O=S(=O)(CCSc1nc2ccccc2o1)c1nc2ccccc2s1	21	7	5402	3	16	19	11
Cc1c(NCc2cc(Cl)ccc2O)c(=O)n(-c2ccccc2)n1C	-5	-5	2743	-36	-3	3.2	-11
Cc1c(C#N)c2ccccc2n1CC(=O)NCC1CCCO1 (stereo not drawn)	-1	4	7524	-18	-6	6.6	-4
Cc1ccc2c(c1)N(C(=O)CSc1nncn1C)C(C)(C)c1ssc(=S)c1-2	.	.	5538	-2	1	2.4	0
COc1ccc(NC(NC(=O)c2cccnc2)C(Cl)(Cl)Cl)cc1 (stereo not drawn)	-12	-11	4641	.	-1	3.3	2
Cc1nn(CCCC(=O)NCc2ccco2)c(=O)c2nn(-c3ccccc3)c(C)c12	12	6	5878	-2	1	2.4	6

Later entries
compound	Mtb hypoxia inh	Mtb hypoxia inh growth	Bead autofluor	PrP UTR inh	BJeLR lethal	RN4220 kill	Sa ugtP lethal
COc1cnc(N(C)C)nc1Sc1ccc(Cl)cc1	12	-2	.	-1	-12	-1.1	10
COC(=O)Cn1c(CN2CCOCC2)nc2c1c(=O)n(C)c(=O)n2C	-4	1	5519	-3	-4	7.0	2
C/C(=N\NC(N)=O)C1(C)CCCCC1	.	.	10782	-17	-8	.	.
COc1ccccc1NS(=O)(=O)c1ccc(C(=O)NCC(c2ccco2)N2CCCCC2)cc1 (stereo not drawn)	-2	16	4194	-15	.	0.9	1
O=C(COC(=O)COc1ccc2ccccc2c1)NCC(F)(F)F	0	4	4574	3	16	3.6	5
O=C(NC(=S)Nc1ccccc1Cl)c1cncc(Br)c1	9	-2	4073	-15	-17	0.8	35
O=C(NCC12CC3CC(C1)CC(CNC(=O)N1CCCC1)(C3)C2)N1CCCC1	-4	5	16751*	-93	-3	2.2	5
NC(=O)C(Cc1cc2ccccc2s1)NC(=O)C1CC2(CC(c3cccc(NC(=O)C4CCC(=O)N4)c3)=NO2)CN1C(=O)C=Cc1c(F)cccc1Cl (stereo not drawn)	-2	6	.	.	.	2.3	-8
CC(=O)Nc1ccc2c(COC(=O)[C@@H](NS(=O)(=O)c3ccc(C)cc3)C(C)C)cc(=O)oc2c1	-2	1	3111	6	.	2.0	-3
Cn1c(CNC(=O)c2ccco2)nnc1SCC(=O)c1ccc(F)cc1	.	.	5378	-12	0	.	.
CC(=O)NCCc1ccc(S(=O)(=O)NC2OC(=O)c3ccccc32)cc1 (stereo not drawn)	8	4	4630	-41	5	32	5
Cc1ccc(-c2nnc(SCC(=O)NN=Cc3ccccc3C(=O)O)n2C2CCCCC2)cc1	2	-1	.	.	.	14	0
COc1cccc(Nc2nc(C)nc3c2oc2ccccc23)c1	12	10	4109	.	-32	28	29
O=C1CC(c2cccs2)Cc2nc(NCC3CCCO3)ncc21 (stereo not drawn)	11	8	4243	-4	4	3.3	5
O=C(Cn1cccc1)Nc1ccc(OC(F)(F)F)cc1	3	3	21063*	12	-13	0.3	4
O=C(NCc1ccc(Cl)cc1)c1ccc(OCC2CCCO2)cc1 (stereo not drawn)	11	7	1836	-5	-3	-1.3	1

A section from further up:
compound	Mtb hypoxia inh	Mtb hypoxia inh growth	Bead autofluor	PrP UTR inh	BJeLR lethal	RN4220 kill	Sa ugtP lethal
O=C1CC(c2cccs2)Cc2nc(NCC3CCCO3)ncc21 (stereo not drawn)	11	8	4243	-4	4	3.3	5
O=C(Cn1cccc1)Nc1ccc(OC(F)(F)F)cc1	3	3	21063*	12	-13	0.3	4
O=C(NCc1ccc(Cl)cc1)c1ccc(OCC2CCCO2)cc1 (stereo not drawn)	11	7	1836	-5	-3	-1.3	1

The results go on.
compound	Mtb hypoxia inh	Mtb hypoxia inh growth	Bead autofluor	PrP UTR inh	BJeLR lethal	RN4220 kill	Sa ugtP lethal
O=C(Nc1ccc(-c2nc3cc(Cl)ccc3o2)cc1)C1CCCO1 (stereo not drawn)	1	-12	4560	-13	-3	7.4	2
O=S(=O)(/N=C(/Nc1nc2ccccc2s1)c1ccccc1)c1ccc(F)cc1	-12	8	6221	-28	.	3.9	5
Cc1cc(C)n(CCc2nc(-c3ccco3)cs2)n1	4	6	19796*	-45	-4	-0.3	10
CC(C)(C)C(CCl)C(=O)NN=C(c1ccccc1)c1ccccc1 (stereo not drawn)	6	6	2978	-11	.	7.8	3
CC(=O)N(C1=NCCCS1)c1ccccc1F	0	2	24871*	-5	-8	5.4	3
N#C/C(=C(/O)c1ccc(-c2cccc([N+](=O)[O-])c2)o1)c1nc2ccccc2s1	12	2	3656	-10	4	83	80
CC(=O)c1c(O)n(C2CCCCCC2)c(=O)[nH]c1=O	.	.	2973	2	-2	3.0	9
Cc1ccc(NC(=O)Cn2c(O)c(N=NC(=O)c3cc([N+](=O)[O-])ccc3O)c3ccccc32)cc1	-5	4	.	.	13	1.4	4
CCOC(=O)C1CCN(c2c(NCc3ccc(C(=O)Nc4ccc(C)cc4)cc3)c(=O)c2=O)CC1	11	9	3341	-25	7	11	10
CC(OC(=O)CN1C(=O)NC(C)(C)C1=O)C(=O)c1ccccc1 (stereo not drawn)	14	8	2396	1	-2	1.9	3
COc1ccc(-c2c(O)c(C#N)c(-c3ccccc3)n(-c3ccc(OC)cc3)c2=O)cc1	7	3	2378	-49	0	-1.8	0
COc1ccc(F)cc1S(=O)(=O)N1CC(C)CC(C)C1 (stereo not drawn)	12	6	20024*	-26	6	1.3	2

This is a random part of the collection; about 4% have a hit in one of these screens.
